VDR inhibitor – vitamin D3 receptor (human) inhibition. P11473. 0.93% of 400,000 active. VDR-SRC2-3 peptide fluorescence polarization, 2 h. Potency, µM, inactives show max response, negative = inhibition, most hits filed as inhibitors; active means well fitted inhibition curve with a large enough effect; inconclusive means small, poorly fitted or top-dose-only effect, or another doubt; inactive means no such curve, though single readings can be large or run the other way; further: series mostly up to about 120 µM
Target sequence (P11473 whole entry, looked up): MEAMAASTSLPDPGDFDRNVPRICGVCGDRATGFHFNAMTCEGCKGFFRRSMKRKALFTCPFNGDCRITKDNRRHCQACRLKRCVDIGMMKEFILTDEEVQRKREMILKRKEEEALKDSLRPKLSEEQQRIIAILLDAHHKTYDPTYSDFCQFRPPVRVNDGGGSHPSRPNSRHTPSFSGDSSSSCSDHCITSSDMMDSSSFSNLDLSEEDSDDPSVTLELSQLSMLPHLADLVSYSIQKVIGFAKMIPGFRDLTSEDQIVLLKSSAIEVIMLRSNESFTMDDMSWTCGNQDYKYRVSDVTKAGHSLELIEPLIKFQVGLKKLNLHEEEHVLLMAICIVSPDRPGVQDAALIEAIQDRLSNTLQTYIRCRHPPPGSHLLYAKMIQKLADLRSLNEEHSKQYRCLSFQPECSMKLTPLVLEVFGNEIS
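Fluorescence polarization assay measuring small-molecule disruption of VDR binding to the coregulator peptide SRC2-3. Compounds were pin-transferred (23 nl) into the reagent mix and incubated 2 h at room temperature before reading.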
Starred values were filed as active, the others as inactive; ? = inconclusive; & = joins results of further samples. On the % scale 0 is the no-effect control and ±100 the full control effect; potency means the concentration at half of the fitted maximal effect.

The opening 2 compounds, ahead of the listing:
SMILES	VDR inhibitor
O=C(CCc1nnc2ccc(NCc3ccc(Cl)cc3)nn12)NC1CCCCC1	-19%
CC1CCN(C(=O)COC(=O)/C=C/c2ccc(Br)o2)CC1	-29%

Main list, previewed entries included:
SMILES	VDR inhibitor
O=C(CCc1nnc2ccc(NCc3ccc(Cl)cc3)nn12)NC1CCCCC1	-19%
CC1CCN(C(=O)COC(=O)/C=C/c2ccc(Br)o2)CC1	-29%
CCc1ccc(NC(=O)c2ccc3c(c2)C(=O)N(Cc2ccco2)C3=O)cc1	?
CN(C)C(=O)Oc1cccc([N+](C)(C)C)c1	-10%&4%&11%&5%&-5%&0%
N#Cc1cnn2cc(-c3ncc(C(F)(F)F)cc3Cl)cnc12	-21%
C=CCn1c(SCC(=O)NCC(=O)OCC)nnc1-c1ccccn1	13%
CCOC(=O)c1c(NC(=O)C(F)(OC)C(F)(F)F)sc2c1CCN(C)C2 (stereo unspecified)	1%
CCc1ccccc1NS(=O)(=O)Cc1ccccc1	-3%
O=C1c2ccccc2C(=O)C1(c1ccccc1)N1CCN(c2cccc(C(F)(F)F)c2)CC1	-18%
COc1cccc(/C=C2/SC(=S)N(CCC(=O)N3CCOCC3)C2=O)c1	-10%
Cc1ccc2nc(-c3c[nH]c4ccccc34)c(Nc3ccccc3C)n2c1	-15%
CCn1cc(C(=O)NCc2ccccc2Cl)c(=O)c2cc(S(=O)(=O)N3CCCCCC3)ccc21	-11%
COc1ccc(NC(=O)COCC(=O)Nc2ccc(C)cc2)cc1	-7%
O=C(OCC(=O)N1CCCC1)c1cc(=O)c2ccccc2o1	-7%
COc1cccc(C(=O)NC2CC3CCCC(C2)N3S(=O)(=O)c2ccccc2)c1 (stereo unspecified)	9%
CCN(CC)S(=O)(=O)c1ccc(Cl)c(NC(=O)COc2ccccc2[N+](=O)[O-])c1	13%
OCCCn1c(C2CCCN2c2nc(-c3ccc(F)cc3)cs2)nc2cc(Cl)c(Cl)cc21 (stereo unspecified)	5%
O=C(NCc1ccccn1)Nc1cccc(Cl)c1Cl	3%
CC(OC(=O)Cn1cnc2c1c(=O)n(C)c(=O)n2C)C(=O)c1ccccc1 (stereo unspecified)	-8%
CC(=O)c1ccc(C(=O)NC2CCCN(Cc3ccccc3F)C2)cc1 (stereo unspecified)	-7%
CC(=O)N1Cc2ccccc2CC1C(=O)O (stereo unspecified)	-22%
O=C(O)c1ccc(OCc2occc2C(=O)O)cc1	7%
Cc1ccc(C)c(S(=O)(=O)N2CCN(C(=O)Cc3c(F)cccc3Cl)CC2)c1	-28%
CN(C)C(=O)c1nc2ccc(Cl)cn2c1CN1CCN(c2ncccn2)CC1	1%
O=C(NNC(=O)c1ccc(Cl)cc1Cl)c1ccncc1	11%

At a glance, some entries already given:
SMILES	VDR inhibitor
CN(C)C(=O)Oc1cccc([N+](C)(C)C)c1	-10%&4%&11%&5%&-5%&0%
N#Cc1cnn2cc(-c3ncc(C(F)(F)F)cc3Cl)cnc12	-21%
C=CCn1c(SCC(=O)NCC(=O)OCC)nnc1-c1ccccn1	13%
CCOC(=O)c1c(NC(=O)C(F)(OC)C(F)(F)F)sc2c1CCN(C)C2 (stereo unspecified)	1%
CCc1ccccc1NS(=O)(=O)Cc1ccccc1	-3%
O=C1c2ccccc2C(=O)C1(c1ccccc1)N1CCN(c2cccc(C(F)(F)F)c2)CC1	-18%
COc1cccc(/C=C2/SC(=S)N(CCC(=O)N3CCOCC3)C2=O)c1	-10%
Cc1ccc2nc(-c3c[nH]c4ccccc34)c(Nc3ccccc3C)n2c1	-15%
CCn1cc(C(=O)NCc2ccccc2Cl)c(=O)c2cc(S(=O)(=O)N3CCCCCC3)ccc21	-11%
COc1ccc(NC(=O)COCC(=O)Nc2ccc(C)cc2)cc1	-7%
O=C(OCC(=O)N1CCCC1)c1cc(=O)c2ccccc2o1	-7%
COc1cccc(C(=O)NC2CC3CCCC(C2)N3S(=O)(=O)c2ccccc2)c1 (stereo unspecified)	9%
CCN(CC)S(=O)(=O)c1ccc(Cl)c(NC(=O)COc2ccccc2[N+](=O)[O-])c1	13%
OCCCn1c(C2CCCN2c2nc(-c3ccc(F)cc3)cs2)nc2cc(Cl)c(Cl)cc21 (stereo unspecified)	5%
O=C(NCc1ccccn1)Nc1cccc(Cl)c1Cl	3%
CC(OC(=O)Cn1cnc2c1c(=O)n(C)c(=O)n2C)C(=O)c1ccccc1 (stereo unspecified)	-8%
CC(=O)c1ccc(C(=O)NC2CCCN(Cc3ccccc3F)C2)cc1 (stereo unspecified)	-7%
CC(=O)N1Cc2ccccc2CC1C(=O)O (stereo unspecified)	-22%
O=C(O)c1ccc(OCc2occc2C(=O)O)cc1	7%
Cc1ccc(C)c(S(=O)(=O)N2CCN(C(=O)Cc3c(F)cccc3Cl)CC2)c1	-28%
CN(C)C(=O)c1nc2ccc(Cl)cn2c1CN1CCN(c2ncccn2)CC1	1%
O=C(NNC(=O)c1ccc(Cl)cc1Cl)c1ccncc1	11%

(list continues)
SMILES	VDR inhibitor
CN(C)c1ccc(C(=O)N/N=C/c2ccccn2)cc1	-9%
COC(=O)C1=CN(Cc2cccs2)C=C(C(=O)OC)C1c1cccc(OC)c1OC	-1%
Cc1ccccc1Nc1nn2c(=O)c3ccccc3nc2s1	-11%
Cc1ccccc1NC(=O)Cc1nc(CSc2nnc(-c3ccc4c(c3)OCO4)o2)cs1	10%
Cc1cc(Cl)ccc1C(=O)C1CCCN(C(=O)CCn2cnnn2)C1 (stereo unspecified)	6%
CS(=O)(=O)c1ccc(-c2nnc(NC(=O)c3ccc4c(c3)OCCO4)o2)cc1	12%
CCc1ccc(CNC(=O)C2CCCN(c3nnc(C)c4c(C)n(-c5ccc(OC)cc5)nc34)C2)cc1 (stereo unspecified)	12%
COc1ccc(CNC(=O)c2c(F)c(F)c(F)c(F)c2F)cc1	2%
COc1cc2c(C#CCCO)c(-c3ccsc3)oc(=O)c2cc1OC	-6%
COc1ccccc1CNC(=O)COC(=O)c1ccc(Cl)nc1	-9%
CCN(C(=O)Cn1nc(C)n2c(cc3cc(C)ccc32)c1=O)c1ccccc1	0%
COCC(C)OC(=O)/C(C#N)=C\c1coc2ccc(C)cc2c1=O (stereo unspecified)	?
O=C(Nc1cc(C(F)(F)F)ccc1Cl)C(NCc1ccccc1)c1ccccc1 (stereo unspecified)	-6%
COC(=O)c1ccccc1NC(=O)c1cc(-c2ccco2)on1	-9%
Cn1cc(CN2CCCC(CO)C2)c(-c2ccc(Oc3ccccc3)cc2)n1 (stereo unspecified)	0%
COC(=O)[C@H](COC(C)(C)C)NC(=O)O[C@@H]1Cc2cc(OC)ccc2O[C@H]1c1cccc(OC)c1	5%
O=C(Nc1ccc(C(=O)NCCCN2CCN(c3ccc(F)cc3)CC2)cc1)C1=CSCCO1	-5%
O=C(NCc1cccc(F)c1)C1CCN(c2nc3ccccc3nc2C(F)(F)F)CC1	15%
COc1ccc(C)cc1NC(=O)CSc1nnc(-c2ccco2)n1Cc1ccco1	-14%
CC(C)=CCc1cc([C@@H]2COc3c(ccc4c3C=CC(C)(C)O4)C2)c(O)cc1O	-18%
Cn1c(SCC(=O)Nc2nccs2)nnc1-c1ccccn1	-3%
Cc1cc(C(=O)CSc2n[nH]c(N)n2)c(C)n1-c1ccc2c(c1)OCO2	-2%
CCC(C(=O)N1CCN(C(=O)c2ccco2)CC1)c1ccccc1 (stereo unspecified)	6%
O=C1NC2=C(C(=O)CCC2)C(c2ccc([N+](=O)[O-])cc2)N1 (stereo unspecified)	5%
C[C@H]1CCC[C@]2(CC(=O)c3cc(F)ccc3O2)C1	2%
Next part
SMILES	VDR inhibitor
Cc1cnc(C(=O)OCC(=O)c2ccc(C)s2)cn1	-6%
CC(=O)n1cc([C@H]2C=C(C(=O)N3CCOCC3)O[C@@H](OCc3ccc(CO)cc3)C2)c2ccccc21	7%
Cc1ccc(CN2C(=O)CCC2(C)C(=O)NCc2cccnc2)cc1 (stereo unspecified)	2%
COc1ccc(-c2cc(-c3ccccc3)c(C#N)c(=S)[nH]2)cc1	?
CN(Cc1cccs1)S(=O)(=O)c1cccs1	2%
CC(=O)NCCc1nc2cc(NC(=O)Nc3ccccc3)ccc2n1C	18%
CC(=O)C(Sc1nnnn1-c1ccc(O)cc1)c1ccccc1 (stereo unspecified)	1%
CCCc1cc(=O)[nH]c(SCC(=O)N2N=C(c3ccc(Cl)cc3)CC2c2ccco2)n1 (stereo unspecified)	11%
Cc1cc(C)n(C(=O)CCCCCCCC(=O)n2nc(C)cc2C)n1	-9%
Cc1ccc(-c2csc(N3CCN(S(=O)(=O)c4ccc5c(c4)NC(=O)CO5)CC3)n2)cc1	-4%
COc1ccc(OC)c(N(CC(=O)N2CCCCC2)S(=O)(=O)c2ccc(OC)c(OC)c2)c1	-5%
CCOC(=O)c1cc2c(c(CCO)n1)[C@H](CCO)N(S(=O)(=O)C(C)(C)C)C2	-3%
CC(=O)Nc1ccc(OCC(=O)NCc2ccccc2)cc1	10%
[O-]/C(=C(\C(=S)Nc1ccc(SC(F)F)cc1)[n+]1ccccc1)c1cc(Cl)ccc1Cl	-19%
C=CCN(Cc1nc(-c2ccc(OC)c(OC)c2)oc1C)C1CCS(=O)(=O)C1 (stereo unspecified)	-1%
O=C(COc1cccc(NC(=O)c2ccccc2)c1)c1ccc(F)cc1	-2%
Cc1ccc(NC(=S)NCCc2ccc(S(N)(=O)=O)cc2)c(C)c1	-15%
O=S(=O)(c1ccccc1)N1CCC2(CC1)CN(C(c1ccccc1)c1ccccc1)C2	-6%
COc1ccc(C(=O)CCN2CCN(c3ccc(OC)cc3)CC2)cc1	?
NC(=O)C1CCN(C(=O)CSc2nc3c(c(-c4ccccc4)n2)CCCC3)CC1	-10%
Oc1ccc(Cl)cc1N=Cc1sc2ccccc2c1Cl	-4%
O=C(CSc1nnc2ccc(-c3ccncc3)nn12)c1cccs1	-11%
CCOc1cnc(C(=O)NNC(=O)C(Br)C(C)C)o1 (stereo unspecified)	-13%
O=C(c1ccc(=O)[nH]c1)N(Cc1ccco1)C1(C(=O)NC2CCCCC2)CCCCC1	3%
COc1cccc(NC(=O)c2oc3ccccc3c2NC(=O)c2cc3ccccc3o2)c1	1%
(list continues)
SMILES	VDR inhibitor
CCC(=O)Nc1ccccc1C(=O)C(=O)Nc1ccccc1	-10%
CC(Nc1cc(N2CCN(S(C)(=O)=O)CC2)ccc1[N+](=O)[O-])c1ccccc1 (stereo unspecified)	6%
Cc1ccc(-n2ncc(C(=O)Nc3ccc4c(c3)OCO4)c2C2CCN(C(=O)OC(C)(C)C)CC2)cc1	4%
Cc1cc(SCC(=O)Nc2ccc(O)cc2)n2ncc(-c3ccccc3)c2n1	2%
COc1ccc(-c2noc3c2-c2nc(C(C)C)sc2CC3)cc1	-12%
CCOc1ccc(N(CC(=O)NC(C)(C)C)C(=O)CCC(=O)Nc2nccs2)cc1	12%
NC(=S)Nc1cccc2[nH]ncc12	6%
Cc1nnc(NC(=O)c2cccc(S(=O)(=O)N3CCCC3)c2)s1	-18%
COc1ccc(-c2nc3cc(NC(=O)c4ccc(C)cc4)ccc3o2)cc1Cl	-7%
O=S(=O)(c1ccccc1)N1CCN(Cc2cccc(Br)c2)CC1	-24%
Cc1ccc(-n2c(C)cc(C=C3C(=O)CC(C)(C)CC3=O)c2C)cc1	-7%
COc1ccc(N=CC2=C(O)CC(c3ccccc3)CC2=O)c(OC)c1 (stereo unspecified)	?
CCOC(=O)N/N=C(\C)c1ccc(OC(F)F)cc1OC(F)F	19%
COc1ccc(-c2nc3ccccc3c(=O)n2CCc2ccc(O)cc2)cc1	-15%
COc1ccc(NC(=O)Nc2ccccc2F)c([N+](=O)[O-])c1	-2%
O=C(c1ccc(Br)o1)N1CCN(c2ccc(F)cc2)CC1	17%
CC1CCN(Cc2nnnn2-c2ccc(Cl)cc2)CC1	-25%
CCc1nnc(NC(=O)c2cccc(S(=O)(=O)N3CCCC3)c2)s1	-15%
CCCn1c(=O)c2sccc2n2c(CCCC(=O)NCCOC)nnc12	7%
COc1cccc2c1Oc1ncccc1N(c1ccc(C(=O)NCc3ccccc3C)s1)C2	6%
CC(=O)Nc1cccc(NC(=O)C2C3C=CC(C3)C2C(=O)O)c1 (stereo unspecified)	6%
CC(C)COP(=O)(OCC(C)C)C(O)c1ccccc1F (stereo unspecified)	5%
COc1ccc2[nH]cc(CCN=C(NC(=O)c3ccccc3OC)Nc3nc(C)cc(C)n3)c2c1	-21%
C=CCn1cc(/C=C2/NC(=O)NC2=O)c2ccccc21	-9%
COC(=O)c1cc2oc3ccccc3c2n1CC(=O)Nc1ccccc1OC	17%

Screening results as filed in PubChem.

These rows are one share of the data; the hit share may differ from the screen's.
